High-throughput results from PubChem.
RecA splice inh: blocks M. tuberculosis RecA intein splicing; P9WHJ3; cell-free RecA intein splicing, fluorescence; inhibition, %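 (about 9 µM by stock and volumes)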; hit rate 0.75% among 290,000; AID 2221; in the data active = inhibition above about 30%;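 also: 0% = vehicle wells and 100% = reference inhibitor control wells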
Target sequence (P9WHJ3 whole entry, looked up, canonical isoform): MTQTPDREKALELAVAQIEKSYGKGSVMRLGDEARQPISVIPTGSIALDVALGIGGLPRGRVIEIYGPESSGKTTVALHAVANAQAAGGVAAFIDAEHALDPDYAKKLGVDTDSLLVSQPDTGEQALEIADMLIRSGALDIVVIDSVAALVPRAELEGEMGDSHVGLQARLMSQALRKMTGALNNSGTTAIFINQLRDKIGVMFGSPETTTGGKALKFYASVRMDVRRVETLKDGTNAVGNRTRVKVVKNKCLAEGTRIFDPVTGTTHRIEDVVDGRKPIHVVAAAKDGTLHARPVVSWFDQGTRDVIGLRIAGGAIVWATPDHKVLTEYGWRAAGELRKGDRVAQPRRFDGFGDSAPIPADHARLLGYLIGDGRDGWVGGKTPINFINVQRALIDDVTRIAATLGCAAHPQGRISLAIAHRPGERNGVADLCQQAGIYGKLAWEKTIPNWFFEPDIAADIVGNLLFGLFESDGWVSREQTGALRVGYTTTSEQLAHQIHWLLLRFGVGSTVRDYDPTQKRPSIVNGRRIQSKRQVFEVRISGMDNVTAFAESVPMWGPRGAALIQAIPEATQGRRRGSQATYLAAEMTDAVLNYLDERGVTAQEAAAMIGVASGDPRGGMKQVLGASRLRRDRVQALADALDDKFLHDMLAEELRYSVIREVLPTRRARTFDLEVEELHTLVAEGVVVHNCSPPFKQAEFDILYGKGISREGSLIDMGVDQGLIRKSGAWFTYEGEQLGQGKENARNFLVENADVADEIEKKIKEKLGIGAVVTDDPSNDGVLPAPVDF
YopH PTP inh: blocks Yersinia enterocolitica YopH tyrosine phosphatase; fluorescence Ex485/Em525; inhibition, %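 (about 10 µM by stock and volumes)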; hit rate 0.16% among 140,000; AID 898;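 active = inhibition of 50% or more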;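 also: controls were vehicle for no effect and minimum signal wells for full effect; inactives centre near -20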
Mtb betalactam: beta-lactam sensitization of Mtb H37Rv | M. tuberculosis H37Rv growth with meropenem, percent inhibition; hits of this screen are not shown here | inhibition, % at 25 µM | hit rate 0.27% among 330,000 | AID 434955;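 active = about 74% or more and at least 40 points above the plate without the antibiotic, then above 30% in a dose series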;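 also: growth measured after seven days incubation then overnight dye step; 0% = bacteria only wells and 100% = bacteria with antibiotic; twin plates without the antibiotic show which effects depend on it; some results filed as inactive read as strong as hits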
Arbovirus anti: arbovirus infection inhibition; arbovirus infection cell-based antiviral screen; inhibition, % at 10 µM; hit rate 0.37% among 200,000; AID 1251;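 active = inhibition from about 30%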;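 also: bluetongue infection of BSR cells; cell survival read as ATP light after 72 h; 0% = infected wells without compound and 100% = uninfected wells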
Mtb growth: M. tuberculosis H37Rv growth inhibitors, H37Rv strain (AID 1626); hit rate 0.95% among 220,000; M. tuberculosis H37Rv growth inhibition; higher % means a stronger effect; one-dose inhibition, % at 10 µM; IC50 in µM for titrated hits;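 active = confirmed in a dose series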;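 also: bacteria incubated seven days before Alamar blue readout; 0% = bacteria only wells and 100% = bacteria with antibiotic wells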
Arbovirus anti repeat: second read-out of Arbovirus anti, no call of its own (marks repeat the call); inhibition, %; measured here: 10K subset replicate screen; many hits read low in the repeat;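 first of two repeat runs on a subset; 0% = infected and 100% = uninfected wells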
Starred values were filed as active, the others as inactive; nt = not tested or not shown. These rows are one share of the data, so the mix of outcomes need not match the whole.

SMILES | RecA splice inh | YopH PTP inh | Mtb betalactam | Arbovirus anti | Mtb growth | others
Cc1cc(C)c(S(=O)(=O)N2CCOC2CNC(=O)C(=O)NCCCn2ccnc2)c(C)c1 (centres undefined) | -0.8 | nt | -6 | nt | 2%
O=C(CN1CCN(c2ccccc2)CC1)Nc1c(C(=O)C2CC2)oc2ccccc12 | -0.9 | -34 | -3 | 3 | -1%
Cc1c(Nc2ncnc3c2cnn3-c2ccccc2)c(=O)n(-c2ccccc2)n1C | 4.3 | -23 | -7 | 1 | -17%
CCOc1nc(-c2ccc(OC)cc2)ccc1-c1noc(C)n1 | -4.9 | -25 | -4 | 6 | 6%
O=C(Oc1ccc(C(=S)N2CCOCC2)cc1)c1cccc(Cl)c1 | 8.1 | nt | 5 | nt | nt
CC(=O)N1c2ccc(S(=O)(=O)NCC3CCC(C(=O)NC4CCCCC4)CC3)cc2CC1C (centres undefined) | -2.2 | nt | 7 | nt | nt
CN(C)c1ccc(C(=O)N/N=C/c2cc(Br)cc(Br)c2O)cc1 | -10 | nt | 7 | nt | 2%
COCc1cc(Sc2ccc(Cl)cc2)nc(-c2ccccc2)n1 | nt | -55 | 3 | 6 | 16%
COc1ccc(N2C(=O)C3CCCN3C2c2ccc(C)o2)cc1Cl (centres undefined) | 5.1 | -26 | 17 | 4 | 0%
CCCn1nnnc1SCC(=O)c1ccc(NC(C)=O)cc1 | 0.3 | -8 | -9 | 9 | -10%
c1ccc(Nc2ccc(-n3ccnc3)nn2)cc1 | 2.6 | nt | -4 | -5 | -3%
O=C1NC(NS(=O)(=O)c2ccc(Cl)cc2)(C(F)(F)F)C(=O)N1CCc1ccccc1 (centres undefined) | 2.4 | nt | -4 | nt | 4%
COCCNC(=O)C1Cc2cc(S(=O)(=O)N3CCCC3)ccc2N1C(C)=O (centres undefined) | -1.3 | nt | -7 | nt | nt
Cc1ccccc1-n1ncc2c1CC(C)(C)CC2NC(=O)CCC1=NNC(=O)CC1 (centres undefined) | -1.6 | nt | -8 | nt | nt
CN(C)CCCNCCCCNC(=O)/C=N/O | 0.8 | -35 | -10 | 4 | nt
CC(C)CNC(=O)CN(c1ccccc1)S(=O)(=O)c1ccccc1[N+](=O)[O-] | -0.6 | nt | 3 | nt | nt
CCOC(=O)Cc1csc(NC(=O)Nc2ccc(OC(F)(F)F)cc2)n1 | nt | nt | 0 | nt | 1%
CN(C)c1ccc(NS(=O)(=O)c2ccc(-c3csnn3)cc2)cc1 | nt | nt | 0 | nt | 4%
CN(CC(=O)NCc1ccccn1)S(=O)(=O)c1ccc(F)cc1 | 2.3 | nt | -5 | 2 | 5%
COc1ccc(CC(=O)N/N=C(\C)c2cccnc2)cc1OC | 0.6 | nt | -6 | nt | nt
COP1(=O)C[C@@H](O)[C@@H](O)[C@@H](COCc2ccccc2)O1 (some centres undefined) | 0.0 | nt | -5 | nt | -12%
O=C(N[C@@H](c1ccccc1)[C@@H]1C[C@H]1C(=O)O)OCc1ccccc1 | 1.0 | -12 | -2 | 4 | 6%
Cc1cc(C)c(C)c(S(=O)(=O)N2CCN(C(=O)c3cc(=O)[nH]c4ccccc34)CC2)c1C | 7.7 | -50 | 87 | -2 | 13%
COc1ccc(OCCc2nnc(N)s2)cc1 | 0.2 | -119 | 3 | 1 | -7%
COc1ccc(OCCN(C)Cc2c(O)ccc3ccccc23)cc1 | -5.0 | nt | -3 | nt | nt

Gathered by group: those above with a furan ring, fused or not.
SMILES | RecA splice inh | YopH PTP inh | Mtb betalactam | Arbovirus anti | Mtb growth | others
O=C(CN1CCN(c2ccccc2)CC1)Nc1c(C(=O)C2CC2)oc2ccccc12 | -0.9 | -34 | -3 | 3 | -1%
COc1ccc(N2C(=O)C3CCCN3C2c2ccc(C)o2)cc1Cl (centres undefined) | 5.1 | -26 | 17 | 4 | 0%

The list goes on.
SMILES | RecA splice inh | YopH PTP inh | Mtb betalactam | Arbovirus anti | Mtb growth | others
O=C(O)c1ccccc1SCc1ccc2c(c1)OCO2 | 0.6 | -34 | -3 | 1 | -6%
CC(=O)N1C(=O)NC(c2ccccc2)=C([N+](=O)[O-])C1c1ccccc1 (centres undefined) | 1.9 | nt | -25 | nt | nt
O=C(NCc1ccccc1)c1cnc(-c2ccccn2)nc1C(F)(F)F | 0.4 | -18 | -3 | 1 | 5%
COc1ccc(OC)c(CCNC(=O)CCn2nc(C)c3c(C)n(-c4ccccc4)nc3c2=O)c1 | -1.2 | nt | 1 | nt | nt
CN1/C(=C\P(=O)(N(C)C)N(C)C)C(C)(C)c2ccccc21 | -1.6 | -38 | 8 | 20 | -13%
CCC(=O)Nc1nc2c(s1)COc1ccccc1-2 | 2.4 | -47 | 0 | 1 | 4%
COc1ccc(NC(=O)CN(C)S(=O)(=O)c2ccc3c(c2)CCCN3C(C)=O)cc1 | 1.0 | nt | -5 | nt | nt
O=S(=O)(c1ccccc1)N1CCC(=NO)CC1 | -2.2 | nt | -6 | 4 | 4%
Cc1cc(C)n(CC(O)Cn2c3ccc(Cl)cc3c3cc(Cl)ccc32)c(=O)n1 (centres undefined) | 17 | -18 | 16 | -35 | 4%
CCn1ncc(Cl)c1C(=O)Nc1cc([N+](=O)[O-])ccc1OC | -2.9 | -22 | -3 | -11 | -2%
CC(C)C(=O)O/N=C(\N)c1ccccn1 | -2.6 | -34 | -2 | -5 | -9%
CCc1ccccc1NC(=O)C1CCCN(c2nccc(C)n2)C1 (centres undefined) | 1.9 | nt | 4 | nt | nt
O=C(NCCN1CCCCC1)c1ccc(Oc2cc(Cl)cc(Cl)c2)o1 | 3.8 | nt | -6 | nt | 11%
CN(C)Cc1c(O)ccc2occ(C(O)c3ccccc3)c12 (centres undefined) | -1.1 | 0 | 2 | -3 | -4% | Arbovirus anti repeat=-10
O=C(OCc1nnc(-c2ccccc2)o1)C12CC3CC(CC(Br)(C3)C1)C2 | 9.9 | nt | nt | 10 | 10%
O=c1c(-c2ccccc2)c(O)c2cccc3c2n1CCC3 | 1.1 | -51 | 0 | 5 | -4%
CC1(c2nnc(-c3cccc(Cl)c3)o2)CC(c2ccc(F)cc2)=NO1 (centres undefined) | 5.9 | nt | -10 | nt | 1%
CC1(C)CC(=O)C2=C(C1)NC1=C(C(=O)c3ccccc31)C2c1ccccc1 (centres undefined) | 11 | -30 | -1 | -2 | 15%
CCOc1ccc(OCc2cccc(C(=O)O)c2)cc1 | 0.6 | nt | 2 | 1 | -2%
O/N=C1\CCCC\C1=C/c1ccccc1 | 0.1 | -37 | 5 | 7 | -2%
Cc1cc(C(=O)NC2CCCN(Cc3ccccc3F)C2)no1 (centres undefined) | 0.5 | nt | 1 | nt | nt
C/C(CC(=O)Nc1ccc2c(c1)OCCO2)=N\NC(=O)COc1ccc(Cl)c(C)c1 | 2.7 | nt | 61 | nt | nt
O=C(C1CCCO1)N1CCN(C(=S)Nc2ccccc2Cl)CC1 (centres undefined) | -0.2 | -26 | -4 | 0 | 6%
COC(=O)C1=C(C)Nc2ncnn2C1c1ccc(OC(=O)c2ccccc2)cc1 (centres undefined) | -1.4 | -23 | -2 | 5 | -4%
C=CCc1ccccc1OCC(=O)N/N=C/c1ccc(OC(C)=O)cc1OC(C)=O | 7.2 | -28 | 0 | -24 | -5%

Following part
SMILES | RecA splice inh | YopH PTP inh | Mtb betalactam | Arbovirus anti | Mtb growth | others
NC(=S)N/N=C1/CCSc2ccc3ccccc3c21 | 5.6 | nt | 6 | 4 | 5%
O=C(Nc1ccc2nn(-c3ccccc3)nc2c1)c1ccco1 | 1.1 | -8 | -10 | -14 | -5%
COc1ccc(CNS(=O)(=O)c2ccc(F)c(C(=O)Nc3ccccc3OC)c2)cc1 | -0.6 | nt | 11 | -12 | 10%
C=CCC(NCCCO)c1cccc(OC)c1OC (centres undefined) | 3.8 | -28 | -4 | 7 | -2%
C/C(Cl)=C/Cc1c(C)[nH]c2c(ccc3ccccc32)c1=O | -1.2 | nt | -3 | nt | nt
Cc1nc2ncnn2c(C)c1CCC(=O)N1CCOCC1 | 0.6 | -35 | -4 | 5 | -13%
O=C(O)CCC(=O)c1ccc2c(c1)CCCC2 | 1.5 | nt | 1 | -1 | 3%
Nc1nnc(CSCc2ccccc2)s1 | 0.5 | -52 | -5 | 4 | 6%
CC(C)CN(C(=O)CSc1nnc2c(Cl)cc(C(F)(F)F)cn12)C1CCS(=O)(=O)C1 (centres undefined) | -0.7 | -50 | 9 | 12 | -3%
NS(=O)(=O)c1cc2c(cc1Cl)NC(C(Cl)Cl)NS2(=O)=O (centres undefined) | -0.6 | -25 | -1 | 0 | -6%
Cc1sc2nc(COC(=O)c3c(F)cccc3F)[nH]c(=O)c2c1C | 3.0 | nt | -7 | -3 | -8%
O=C1c2cccc3cccc(c23)C(=O)N1OS(=O)(=O)c1ccc(Cl)cc1 | -1.8 | -24 | -5 | -10 | -5%
COc1cc2cc(C(=O)N3CCC(Cc4ccccc4)CC3)[nH]c2cc1OC | -0.3 | nt | 3 | nt | nt
O=C(/C=C/c1ccccc1)CC(O)(c1ccccc1)C(F)(F)C(F)F (centres undefined) | 3.8 | -24 | -9 | -39 | 0%
O=C1/C(=C/c2ccco2)CCC1C1CCCC1 (centres undefined) | 0.8 | nt | 9 | -7 | -3%
S=C(Nc1ccccc1)N1CCCN1c1ccccc1 | 0.8 | nt | 42 | nt | -8%
COc1ccc2oc(C(=O)OCC(=O)N(CC(C)C)c3c(N)n(Cc4ccccc4)c(=O)[nH]c3=O)c(C)c2c1 | -2.7 | nt | -6 | nt | nt
C/C(=N\NC(=O)c1ccccc1Br)c1ccc(N2CCOCC2)cc1 | -0.1 | nt | -1 | 7 | 5%
CCC(C)NC(=O)CN(c1ccc(OC)cc1)S(=O)(=O)c1ccccc1 (centres undefined) | -1.1 | nt | -5 | 15 | 0%
COc1ccccc1-n1c(O)c(C=Nc2c(C)n(C)n(-c3ccccc3)c2=O)c(=O)[nH]c1=O | -3.3 | -24 | 1 | 3 | -11%
O=C(N/N=C/c1cccs1)c1cccc(NC(=O)c2ccccc2Cl)c1 | 1.9 | -14 | 8 | -10 | 3%
Cc1nc2ccc(S(=O)(=O)N3CCCCC3)cc2s1 | -2.4 | nt | -4 | nt | nt
Cc1ccc(-n2nc3cc(Cl)c(NC(=O)c4ccco4)cc3n2)cc1 | 4.7 | 10 | -8 | 0 | -2%
Cc1cccc(OCCc2nnc(N)s2)c1C | 2.4 | -14 | 0 | 1 | -1%
COc1cc(/C=N/NC(=O)CNC(=O)c2ccco2)ccc1O | -6.3 | nt | 1 | -7 | -5%

Continued:
SMILES | RecA splice inh | YopH PTP inh | Mtb betalactam | Arbovirus anti | Mtb growth | others
O=C(CSc1nnc(-c2cccnc2)s1)Nc1ccnc2ccccc12 | 1.1 | -5 | -3 | 19 | -4%
Cc1nc(NCCN2CCOCC2)c2oc3ccccc3c2n1 | -1.6 | -47 | -11 | 2 | -1%
O=C(Nc1ccc(Cl)cc1)Nc1nnc(CSCc2ccc(Cl)cc2)s1 | -0.4 | -8 | 1 | 25 | 6%
CCOc1cccc(-c2cc(-c3n[nH]c(=S)n3CC)c3ccccc3n2)c1 | 4.8 | -38 | 5 | -5 | 14%
CCCc1cc(C(=O)Nc2ccc(F)c(Cl)c2)no1 | 3.6 | nt | 7 | nt | nt
O=C(C1CCCN(c2ncnc3c2nc2n3CCCCC2)C1)N1CCN(c2ccccc2)CC1 (centres undefined) | -3.7 | nt | 3 | nt | nt
COc1ccc(N2CC(C(=O)NCCC3=CCCCC3)CC2=O)c(OC)c1 (centres undefined) | 0.1 | nt | 1 | nt | nt
Nc1ccc(Oc2ccc(Br)cc2)cc1 | 10 | 2 | 88 | -22 | 31µM*
CCNc1nc(N)c(C(=O)c2ccc(Cl)s2)s1 | 2.5 | -32 | 14 | 17 | 54%
CCN(CC(=O)Nc1c(F)cccc1F)C(=O)CCN1C(=O)C2CC=CCC2C1=O (centres undefined) | -0.3 | nt | -4 | nt | nt
CCOC(=O)N1CCN(C(=O)/C(=C/c2ccccc2OC)NC(=O)c2ccccc2)CC1 | -1.1 | -30 | -5 | -3 | -14%
Cn1c(=O)n(C)c2cc(/C=N/NC(=O)c3ccc(Cl)cc3)ccc21 | -0.3 | nt | -2 | nt | 3%
COc1ccc(CCNc2ccc([N+](=O)[O-])cn2)cc1 | 1.8 | nt | 3 | nt | nt
c1ccc(Sc2ncccn2)nc1 | -1.2 | nt | -4 | nt | -8%
CCN1CCCC1CNC(=O)c1cn(CC)c2ccc(S(=O)(=O)N3CCCCCC3)cc2c1=O (centres undefined) | 0.8 | -34 | -22 | 9 | nt

Retrieved by compound from above (3):
SMILES | RecA splice inh | YopH PTP inh | Mtb betalactam | Arbovirus anti | Mtb growth | others
O=C(C1CCCN(c2ncnc3c2nc2n3CCCCC2)C1)N1CCN(c2ccccc2)CC1 (centres undefined) | -3.7 | nt | 3 | nt | nt
O=C(Nc1ccc(Cl)cc1)Nc1nnc(CSCc2ccc(Cl)cc2)s1 | -0.4 | -8 | 1 | 25 | 6%
CCOC(=O)N1CCN(C(=O)/C(=C/c2ccccc2OC)NC(=O)c2ccccc2)CC1 | -1.1 | -30 | -5 | -3 | -14%
